Tgondii IFNg = T. gondii growth inhibition under IFN-gamma; Toxoplasma gondii growth in IFN-gamma-treated host cells; hits give low values; reference of the scale not given here; activity change, negative = inhibition, %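 (about 20 µM by stock and volumes)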; actives 3.8% (n = 69,000);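 active means below -70%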;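 further: host cells are HeLa cells infected with Toxoplasma gondii; parasite growth read as luciferase light; one replicate is shown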
* hit, by the source's call; i = inactive; & = joins results of further samples.

SMILES	Tgondii IFNg
Cc1oc(-c2ccccc2)nc1CN1C(=O)C(O)(c2cccc(F)c2)c2ccccc21 (stereo not given)	-105*
Cc1ccc(C)c(OCCN2CC(C(=O)O)CC2=O)c1 (stereo not given)	0
COc1ccc(NC(=O)c2cn3ccc(C)cc3n2)cc1	-69
CC(C)NC(=O)Nc1ccc2c(c1)C(=O)N([C@@H](C)CO)C[C@H](C)[C@H](CN(C)C(=O)C1CCCCC1)OCCCC[C@@H](C)O2	261
Cn1cc(C(CNC(=O)Nc2cccc(Br)c2)c2cccnc2)c2ccccc21 (stereo not given)	-59
Cc1ncc(Sc2ccc(Cl)cc2)c(-c2ccc(Cl)cc2)n1	22
O=C(CN1N=C(c2ccccc2)Cn2c(cc3sccc32)C1=O)NC1CCC1	-1
CCCCCCSc1ncc(C#N)c(N)n1	-5
Cn1cc(C2N3CC4(C)CN2CC(C)(C3)C4=O)c2ccccc21 (stereo not given)	7
C[C@@H]1CN([C@@H](C)CO)S(=O)(=O)c2ccc(Br)cc2O[C@@H]1CN(C)Cc1ccc2c(c1)OCO2	185
C=CC1=C(C(=O)O)N2C(=O)[C@@H](NC(=O)/C(=N\OCC(=O)O)c3csc(N)n3)[C@H]2SC1	17&17
Cc1cccc(-c2nc(Cn3nnc(-c4nc(-c5cccc(C(F)(F)F)c5)no4)c3C)c(C)o2)c1	7
Cn1c(CN2CCOCC2)nc2cc(NC(=O)c3ccc(Cl)cc3)ccc21	-23
CCCNC(=O)Nc1ccc2c(c1)C(=O)N(C)C[C@@H](OC)[C@H](C)CN(C)[C@@H](C)CO2	-1
CC12CC(c3cc(Br)cc(Br)c3O1)C(C(=O)c1ccccc1)C(=O)N2 (stereo not given)	-1
Cc1cccc2nc(C(=O)N(Cc3ccccc3)CC(C)CO)c(F)n12 (stereo not given)	3
C[C@H](NC(=O)C[C@@H]1C=C[C@H](NC(=O)c2cccnc2)[C@@H](CO)O1)c1ccccc1	13
CC1Cc2cc(C(O)CN3CCN(c4ccc5c(c4)OCCO5)CC3)ccc2O1 (stereo not given)	-10
CC(=O)N1CCc2[nH]c3ccc(C(=O)N4CCCC4)cc3c2C1	191
Cc1nccn1CCNC(=O)CC1C(=O)NCCN1Cc1c(F)cccc1Cl (stereo not given)	5
CCOC(=O)Cn1nc(C)c(Br)c1C	21
Cc1ccc(C)c(NC(=O)c2ccc(Nc3nnc(C)c4ccccc34)cc2)c1	-88*
O=c1[nH]c2ccccc2c(O)c1-c1nc(-c2cccc(F)c2)no1	-3
O=C(O)C1(Cc2ccc(-c3ccccc3)cc2)CCNC1 (stereo not given)	32
CCOc1ccc(CN2CCC3(C2)c2ccccc2S(=O)(=O)N3Cc2csc(C)n2)cc1 (stereo not given)	-27

The results go on.
SMILES	Tgondii IFNg
COC[C@]12COC[C@H]1CN(C(=O)c1ccc3ncccc3c1)C2	-15
c1ccc(C(Cn2ccnc2-c2cccnc2)N2CCCCCC2)cc1 (stereo not given)	-9
O=C(CCCCCCCC(=O)c1ccc(Cl)cc1)c1ccc(Cl)cc1	-51
CC(C)Nc1ncnc2c1CCN(CCN1CCCC1)CC2	-35
Cc1cc(C)n(C2CCN(C(=O)c3cnn4c3CCCC4)C2)n1 (stereo not given)	-4
CN(C)C(=O)c1ccc(-c2ccc(C3[C@@H]4CNC[C@H]3N4)cc2)cc1 (stereo not given in full)	-8
CCOC(=O)c1cc(C#N)c(N2CCN(C(=O)OCC)CC2)nc1C(F)(F)F	28
CN(C)C(=O)CO[C@H]1CN(Cc2ccoc2)[C@H]2COC[C@@H]12	45
Cc1noc(C)c1S(=O)(=O)N(C)C[C@H]1OCCCC[C@H](C)Oc2ccc(NS(=O)(=O)c3cn(C)cn3)cc2C(=O)N([C@H](C)CO)C[C@@H]1C	-46
Cc1ccsc1-c1nc(CN(C)Cc2nnc(-c3ccccc3)o2)c(C)o1	-5
O=C(NCc1ccc(N2CCOCC2)cc1)c1csc(-c2ccc(N3CCCC3)nc2)n1	84
COc1cc(C)nc(OCCNC(=O)COc2ccc(Cl)cc2C)n1	-8
OC[C@@H]1[C@@H](c2ccccc2)C2(CN(Cc3ccccc3F)C2)N1Cc1ccccc1F	-56
O=C(c1ccc(CO)o1)N(Cc1cccc(Cl)c1)C1CC1	-3
Cc1cnc(-n2cnnc2)c(-c2ccc3c(c2)OCCO3)c1	3
CCCCCCCCCCCCCCCCCCCCCCCCC(=O)O	0
COc1cc(Nc2nc(SCc3ccc(C(C)(C)C)cc3)nc3ccccc23)cc(OC)c1	-11
Cc1noc(C)c1S(=O)(=O)Nc1ccc2c(c1)C(=O)N([C@H](C)CO)C[C@H](C)[C@H](CN(C)C(=O)Nc1cccc3ccccc13)OCCCC[C@@H](C)O2	343
N#CCN1CCC2(CC1)CC(=O)N(c1cccnc1)c1ccccc12	92
Cc1cc(C)n(CCC(=O)N2CCC(C(=O)NCc3ccccn3)CC2)c(=O)n1	5
Cc1csc([C@H]2C[C@H]3CCN(Cc4cnn(C)c4)C[C@@H]3O2)n1	3
CN(C)C(=O)c1cccc(-c2ccc3c(c2)[C@H]2[C@H](CCN2C(=O)c2cnccn2)[C@@H](CO)N3)c1	17
Cc1occc1-c1nc(N2CC(C)OC(C)C2)ncc1-c1ccncc1 (stereo not given)	-40
COc1nc(C)c(CC(=O)N2C[C@@H](c3ccccc3F)[C@@]3(CCCC(=O)N3)C2)c(OC)n1	-23
Cc1ccc2[nH]c(C(=O)O)c(CN3CC[C@@H]4CC[C@H](C3)N4C)c2c1	3

Later entries:
SMILES	Tgondii IFNg
COc1ccc(-c2nc(C)c(CCNC(=O)c3cccs3)s2)cc1	i
COC[C@]12COC[C@H]1CN(C(=O)COc1cccc(Cl)c1)C2	5
COc1ccc(CNC(=O)C[C@@H]2CC[C@@H](NC(=O)CN(C)C)[C@@H](CO)O2)cc1	-43
CCc1nc(C)sc1CNC(C)Cn1nc(C)cc1C (stereo not given)	-3
CC(C)c1ccc(NC(=O)Cn2c(=O)cc(C(=O)N3CCCC3)c3ccccc32)cc1	10
Cc1ccc(C)c(-c2coc(-c3ccc(NC(=O)Nc4cc(F)ccc4F)cc3)n2)c1	1
CCCc1oc(C(=O)O)cc1CN1CCCC1	42
Cc1ccc(NC(=O)c2c3c(-c4ccccc4)ncnc3n3ccccc23)cn1	39
Cc1cn(C(=O)Nc2ccc(Cl)cc2)nc1-c1ccccc1	-15
COc1ccc2[nH]nc(C(=O)N3C[C@H]4CC=C(C)C[C@H]4C3)c2c1	-42
COCCN1CC2(CCN(Cc3cnn(C)c3)CC2)c2ccccc21	-2
CN(C)CC(=O)N[C@H]1C=C[C@@H](CC(=O)NCc2ccc(Cl)cc2)O[C@@H]1CO	-25
COCCN1C[C@H]2C(=O)N(C)C3(CCN(c4ncc(C)cn4)CC3)[C@H]2C1	-7
Cc1cc(C)c2c(=O)n(Cc3nc(-c4ccccc4Cl)oc3C)c(=O)n(-c3ccccc3)c2n1	2
CCn1c(CNC(=O)C2CCC2)nc2c1CN(S(=O)(=O)c1ccc(C)cc1)CC2	90
O=C(NCCCN1CCCCCC1)C(c1ccccc1)C1CCCCC1 (stereo not given)	10&34
C[C@@H]1CN([C@@H](C)CO)C(=O)Cc2cc(N(C)C)ccc2O[C@@H]1CN(C)Cc1ccc(-c2ccccc2)cc1	-22
CC(C)n1cnnc1CN(C)c1cc(N2CCOCC2)nc(N)n1	2
COc1ccc(CN(C)c2ccc(-c3nccn3C)nn2)cc1OC	367
CCOC(=O)c1nc(N2CCN(c3ccc(F)cc3)CC2)c2ccccc2n1	54
CNc1ccccc1C(=O)NCC1CCN(Cc2cnc(C)nc2)C1 (stereo not given)	22
COc1nn(C)c2c1CCCN(S(=O)(=O)c1cccc(F)c1)C2	4
Cc1nc2ccc(CC(=O)N3CCC4(CC3)CNC(=O)C4)cc2[nH]1	8
C[C@H](NC(=O)[C@@H](O)c1cc(F)cc(F)c1)C(=O)N[C@@H]1C(=O)N(C)c2ccccc2-c2ccccc21	-21
CN(C)C(=O)c1cccc(-c2ccc3n(c2=O)C[C@@H]2[C@@H](CO)[C@H](C(=O)NCC4CC4)N[C@H]32)c1	-3

(list continues)
SMILES	Tgondii IFNg
Cc1cccc(CN2CCC3(CCN(Cc4nccn4C)CC3)C2=O)c1	-5
CN(C)CCNC(=O)Nc1c[nH]c2ccccc2c1=O	-14
CCc1ccc(S(=O)(=O)N2CCC3(CC2)Nc2ccc(Cl)cc2-n2cccc23)cc1	12
O=C(NCCc1c[nH]c2ccccc12)c1cc(-c2ccccn2)nc2ccccc12	71
Cc1ccccc1CNC(=O)CN1CCCCC1CCN1CCOCC1 (stereo not given)	2
CC(C)c1noc(C(C)n2ccnc2C(C)(C)CN2CCOCC2)n1 (stereo not given)	-3
C=CCN(Cc1ccccc1C)C(=O)COc1ccc2c(c1)OCO2	-1
O=C(NC1CCCCNC1=O)c1cccnc1Oc1ccc(Cl)cc1 (stereo not given)	-35
CCOC(=O)c1sc(Sc2ccc(C(F)(F)F)cn2)c2c1CC(C)(C)CC2=O	114
N#CCCN(CC1CCCO1)C(=S)Nc1cc(C(F)(F)F)cc(C(F)(F)F)c1 (stereo not given)	22
Cc1ccccc1-c1ccc2c(c1)O[C@@H](CN(C)C(=O)Nc1ccc(C(F)(F)F)cc1)[C@H](C)CN([C@@H](C)CO)S2(=O)=O	-100*
c1ccc2c(c1)CCN(C1CCN(Cc3cccc4nccnc34)CC1)C2	5
COc1ccc(C2(C(=O)N3CCNC(C(=O)O)C3)CC2)cc1 (stereo not given)	12
CC(C)OCC(=O)N1CCCC(C(=O)c2ccc(C(F)(F)F)cc2)C1 (stereo not given)	-6
COc1ccc2c(c1)NC1(CCN(S(=O)(=O)c3cn(C)cn3)CC1)c1cccn1-2	-4
NC(=O)CC(NS(=O)(=O)c1cccc2nsnc12)C(=O)O (stereo not given)	3
Cn1nnnc1SCC(=O)N1CCN(S(=O)(=O)c2ccccc2)C1	11
Cc1ccccc1-c1nc2ccc(-n3cnnc3)cc2o1	-95*
COc1cccc(C(=O)Nc2ccc3c(c2)OC[C@@H](C)N(CCc2ccccc2)C[C@H](C)[C@H](OC)CN(C)C3=O)c1	i
Cc1cc(=O)[nH]c(Cc2c(Cl)cccc2Cl)n1	-50
CCOC(=O)N1CCC2(CC1)OC(=O)C(C)=C2C(=O)NCc1ccc2c(c1)OCO2	124
COc1ncccc1CN1CCC2(CC1)CC(c1cnn(C)c1)CO2 (stereo not given)	-3
COc1ccc(CC(=O)NC(/N=C(\NC#N)Nc2cccc3ncccc23)C(C)(C)C)cc1OC (stereo not given)	10
O=C(CC1CCS(=O)(=O)C1)Nc1cnc2n1CCCC2 (stereo not given)	4
Cc1ccc(S(=O)(=O)Nc2ccc3c(c2)C(=O)N([C@H](C)CO)C[C@H](C)[C@H](CN(C)S(=O)(=O)c2cccs2)OCCCC[C@@H](C)O3)cc1	-19

Some of these compounds in order of molecular weight, smallest number first:
SMILES	Tgondii IFNg
CCCCCCSc1ncc(C#N)c(N)n1	-5
c1ccc2c(c1)CCN(C1CCN(Cc3cccc4nccnc34)CC1)C2	5
Cc1cc(C)n(CCC(=O)N2CCC(C(=O)NCc3ccccn3)CC2)c(=O)n1	5

The listing picks up, repeating the 4 entries before the break.
SMILES	Tgondii IFNg
COc1ncccc1CN1CCC2(CC1)CC(c1cnn(C)c1)CO2 (stereo not given)	-3
COc1ccc(CC(=O)NC(/N=C(\NC#N)Nc2cccc3ncccc23)C(C)(C)C)cc1OC (stereo not given)	10
O=C(CC1CCS(=O)(=O)C1)Nc1cnc2n1CCCC2 (stereo not given)	4
Cc1ccc(S(=O)(=O)Nc2ccc3c(c2)C(=O)N([C@H](C)CO)C[C@H](C)[C@H](CN(C)S(=O)(=O)c2cccs2)OCCCC[C@@H](C)O3)cc1	-19
COc1ccc2c3c([nH]c2c1)[C@@H](CO)N(C(=O)c1ccc(F)cc1)CC31CCN(C(=O)NC(C)C)CC1	-58
O=C(COc1ccc2c(c1)OCCO2)Nc1cccc(OCCN2CCOCC2)c1	45
CN1CCc2[nH]nc(C(=O)N3CCc4c(nc[nH]c4=O)C3)c2C1	-3
CS(=O)(=O)N1CCO[C@H]2CCN(c3cnccn3)CC[C@H]21	4
COc1ccc(C(=O)N2CCCc3cc(C4=NNC(=O)SC4C)ccc32)cc1OC (stereo not given)	6
CCOC(=O)c1c(C)[nH]c2ccc3c(c12)CN1CCc2cc(OC)ccc2C1O3 (stereo not given)	-28
N[C@@H]1CC[C@@H](NS(=O)(=O)c2cccc(Oc3ccccc3)c2)C1	5
CCOC1C2CCC1N(Cc1ccc3c(c1)OCO3)CCO2 (stereo not given)	4
O=C(Nc1ccc2c(c1)OCO2)c1c(O)c2cccnc2n(-c2ccccc2)c1=O	15
CC(C)Oc1cc(-c2ccc(S(C)(=O)=O)cc2)nc(N)n1	7
COc1cccc(-c2ccc3n(c2=O)C[C@@H]2[C@@H](CO)[C@H](C(=O)NC4Cc5ccccc5C4)N[C@H]32)c1	-9
CCCC(=O)N1CC2(CCN(S(C)(=O)=O)CC2)c2c([nH]c3cc(OC)ccc23)[C@@H]1CO	25
C/C=C/c1ccc([C@@H]2[C@H](CO)N(C(=O)c3ccccn3)C23CN(CCC(F)(F)F)C3)cc1	74
CCCN(CCC)S(=O)(=O)c1ccc(NC(=O)c2ccc3c(c2)OCO3)cc1	-65
COc1ccc(-c2noc(-c3c(O)c4cc(C)ccc4[nH]c3=O)n2)cc1OC	70

In the list so far, seven have a CF3 group.
SMILES	Tgondii IFNg
Cc1cccc(-c2nc(Cn3nnc(-c4nc(-c5cccc(C(F)(F)F)c5)no4)c3C)c(C)o2)c1	7
CCOC(=O)c1cc(C#N)c(N2CCN(C(=O)OCC)CC2)nc1C(F)(F)F	28
CCOC(=O)c1sc(Sc2ccc(C(F)(F)F)cn2)c2c1CC(C)(C)CC2=O	114
N#CCCN(CC1CCCO1)C(=S)Nc1cc(C(F)(F)F)cc(C(F)(F)F)c1 (stereo not given)	22
Cc1ccccc1-c1ccc2c(c1)O[C@@H](CN(C)C(=O)Nc1ccc(C(F)(F)F)cc1)[C@H](C)CN([C@@H](C)CO)S2(=O)=O	-100*
CC(C)OCC(=O)N1CCCC(C(=O)c2ccc(C(F)(F)F)cc2)C1 (stereo not given)	-6
C/C=C/c1ccc([C@@H]2[C@H](CO)N(C(=O)c3ccccn3)C23CN(CCC(F)(F)F)C3)cc1	74

This is a subset (hit frequency here may not be typical).
